Bm FixLJ act – activators of Burkholderia fixLJ two-component system, primary screen, B. multivorans, GFP reporter; B. multivorans fixK-promoter GFP reporter, 18 h; stronger effect = higher value; z-score (concentration not given with the values); 0.3% of 29,000 active; AID 1918990, 2023;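 active means replicate mean overnight rise in green fluorescent reporter signal, 3 or more SD over negative controls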;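 further: score is relative to vehicle wells of the plate; 300 nL library stock went into each well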
* hit, by the source's call. These rows are one share of the data (hit frequency here may not be typical).

What do the screens show for `CCOc1ccccc1NC(=O)COc1ccc(S(=O)(=O)NC2CCCCC2)cc1`?
Bm FixLJ act: 0.01

What do the screens show for `Cc1[nH]c2c(C)cccc2c1CCNC(=O)c1cc2ccccc2oc1=O`?
Bm FixLJ act: -1.7

What do the screens show for `Brc1cccc(-c2nnn3c2nc(N2CCCCC2)c2ccccc23)c1`?
Bm FixLJ act: 0.54

What do the screens show for `CC1(C)CC(O)CCN(C(=O)c2c(N3CCOCC3)noc2-c2ccccc2)C1` (configuration not stated)?
Bm FixLJ act: 0.61

How did COc1ccc(NC(=O)CSC2=Nc3ccccc3C3=NC(CCC(=O)NC4CCCCC4)C(=O)N23)cc1Cl (configuration not stated) do in these assays?
Bm FixLJ act: -1.9

Results for Cc1n[nH]c(C)c1CC(=O)N1CCCN(C(=O)C(C)n2cccn2)CC1 (configuration not stated) ?
Bm FixLJ act: 2.4

Results for Cc1cnccc1NCCNC(=O)N(C)CCc1scnc1C ?
Bm FixLJ act: -0.69

Results for COc1ccc(-c2cc(C(F)(F)F)nc(SCCC(=O)Nc3cccc(OC)c3)n2)cc1 ?
Bm FixLJ act: 0.2

What do the screens show for `CC(C)CCNC(=O)C1CCN(S(=O)(=O)c2cccc3nsnc23)CC1`?
Bm FixLJ act: -0.62

Results for Cc1ccc(-n2c(-c3ccco3)nc3c(cnn3-c3ccccc3C)c2=O)cc1 ?
Bm FixLJ act: 0.76

What do the screens show for `CCOc1cc(-c2nc(-c3ccc(Br)cc3)no2)cc(OCC)c1OCC`?
Bm FixLJ act: -0.34

How did Cc1ccc(-c2nnc(Nc3ccccc3)c3ccccc23)cc1S(=O)(=O)NCc1nc2ccccc2[nH]1 do in these assays?
Bm FixLJ act: -2.2

3 compounds from above, ordered by number of heavy atoms, highest first:
What do the screens show for `CCOc1ccccc1NC(=O)COc1ccc(S(=O)(=O)NC2CCCCC2)cc1`?
Bm FixLJ act: 0.01

What do the screens show for `Cc1[nH]c2c(C)cccc2c1CCNC(=O)c1cc2ccccc2oc1=O`?
Bm FixLJ act: -1.7

What do the screens show for `CC(C)CCNC(=O)C1CCN(S(=O)(=O)c2cccc3nsnc23)CC1`?
Bm FixLJ act: -0.62

Grouped by structure, those above with a carbonyl joined to an NH by a bond outside any ring (6)
What do the screens show for `CCOc1ccccc1NC(=O)COc1ccc(S(=O)(=O)NC2CCCCC2)cc1`?
Bm FixLJ act: 0.01

What do the screens show for `Cc1[nH]c2c(C)cccc2c1CCNC(=O)c1cc2ccccc2oc1=O`?
Bm FixLJ act: -1.7

How did COc1ccc(NC(=O)CSC2=Nc3ccccc3C3=NC(CCC(=O)NC4CCCCC4)C(=O)N23)cc1Cl (configuration not stated) do in these assays?
Bm FixLJ act: -1.9

Results for Cc1cnccc1NCCNC(=O)N(C)CCc1scnc1C ?
Bm FixLJ act: -0.69

Results for COc1ccc(-c2cc(C(F)(F)F)nc(SCCC(=O)Nc3cccc(OC)c3)n2)cc1 ?
Bm FixLJ act: 0.2

What do the screens show for `CC(C)CCNC(=O)C1CCN(S(=O)(=O)c2cccc3nsnc23)CC1`?
Bm FixLJ act: -0.62

The list continues.
What do the screens show for `Cc1ccc2oc(-c3cccc(NC(=O)c4sc5c([N+](=O)[O-])cccc5c4Cl)c3)nc2c1`?
Bm FixLJ act: -1.9

What do the screens show for `COc1ccc2c(c1)CCN(C(=O)NCc1cc(C3CC3)on1)C2`?
Bm FixLJ act: -0.4

How did Nc1c(C(=O)Nc2ccc(Cl)cc2F)sc2nc(-c3cccs3)ccc12 do in these assays?
Bm FixLJ act: 8.7*

How did Cc1ccc(NC(=O)c2sc3ccccc3c2Cl)cc1 do in these assays?
Bm FixLJ act: -1.5

Results for O=C(Cn1c(=O)n(-c2cccc(Cl)c2)c(=O)c2sc3ccccc3c21)NC1CCCCC1 ?
Bm FixLJ act: 0.9

How did CCc1cccc(C)c1NC(=O)CCCn1c(C)c2cnn(-c3ccccc3)c(=O)c2c1C do in these assays?
Bm FixLJ act: -1.1

What do the screens show for `CCOC(=O)c1c(NC(=O)COc2cccc(C(F)(F)F)c2)sc2c1CCC(C)C2` (configuration not stated)?
Bm FixLJ act: 0.2

What do the screens show for `COc1ccc(N(CC(=O)NCc2ccc(F)cc2)S(=O)(=O)c2c(C)noc2C)cc1`?
Bm FixLJ act: -2.8

Results for Cc1cc(C)c2nc(C)cc(C(=O)N3CC4CCCC(C3)C(=O)N4)c2c1 (configuration not stated) ?
Bm FixLJ act: -1.7

Results for COc1ccc(-c2cn3cccnc3n2)cc1NC(=O)Nc1cc(C)ccc1C ?
Bm FixLJ act: -4.4

What do the screens show for `CCOc1ccc(-c2n[nH]c3c2C(c2cccs2)N(c2ccc(Br)cc2)C3=O)cc1` (configuration not stated)?
Bm FixLJ act: 0.44

Results for CCc1ccc(NC(=O)Cn2ncc3c4ccccc4n(C)c3c2=O)cc1 ?
Bm FixLJ act: -2.6

Two entries drawn at random from those above:
Results for COc1ccc(-c2cn3cccnc3n2)cc1NC(=O)Nc1cc(C)ccc1C ?
Bm FixLJ act: -4.4

What do the screens show for `COc1ccc(N(CC(=O)NCc2ccc(F)cc2)S(=O)(=O)c2c(C)noc2C)cc1`?
Bm FixLJ act: -2.8

Later entries
What do the screens show for `Cc1cc(Br)ccc1NC(=O)c1coc(=O)c2ccccc12`?
Bm FixLJ act: 0.21

Results for COc1ccccc1C1C(C(=O)N2CCCCC2)=C(C)Nc2nc3ccccc3n21 (configuration not stated) ?
Bm FixLJ act: -0.33

How did CS(=O)(=O)N1CCCC(CNC(=O)c2sccc2Cl)C1 (configuration not stated) do in these assays?
Bm FixLJ act: -1.2

How did Cc1cccc(C2=Nc3ccccc3N=C(c3cc(Cl)ccc3O)C2)c1 do in these assays?
Bm FixLJ act: 1.4

What do the screens show for `COc1cc(C(C)NC(=O)CCn2cnnn2)cc(OC)c1OC` (configuration not stated)?
Bm FixLJ act: 0.12

Results for CCc1ccc(NC(=O)Cn2cnc3sc(C)c(S(=O)(=O)N4CCC(C)CC4)c3c2=O)cc1 ?
Bm FixLJ act: -0.15

Results for CC(C)c1ccc(S(=O)(=O)Nc2cc3c(cc2NCc2ccccc2)n(C)c(=O)n3C)cc1 ?
Bm FixLJ act: -0.5

Results for Cc1cc(C)n(Cc2cccc(C(=O)NC(C)CN3CCc4ccccc4C3)c2)n1 (configuration not stated) ?
Bm FixLJ act: 0.11

How did Cc1ccc2nccc(N(C)Cc3nc(-c4ccccn4)no3)c2c1 do in these assays?
Bm FixLJ act: 0.72

How did COc1cccc(CN2CCN(C(=O)COc3cccc(F)c3)CC2=O)c1 do in these assays?
Bm FixLJ act: -1.4

Results for Cc1ccc(C(=O)O)cc1-n1c(C)ccc1-c1ccccc1 ?
Bm FixLJ act: -1.5

What do the screens show for `CC(C)c1nc(CN(C)C(=O)c2ccccc2-n2cncn2)cs1`?
Bm FixLJ act: 0.77

What do the screens show for `O=C(c1ccccc1Cl)N1CCCCC1CCN1CCCCC1` (configuration not stated)?
Bm FixLJ act: -0.61

How did Cc1ccccc1NC(=O)Cn1c(=O)n(Cc2ccccc2)c(=O)c2sc3ccccc3c21 do in these assays?
Bm FixLJ act: -1

How did CCOC(=O)c1cc(NC(=O)c2ccc(Cl)cc2)c(=O)n2c1oc1ccccc12 do in these assays?
Bm FixLJ act: -3.3

What do the screens show for `Cc1cccc(NC(c2ccccc2C)c2ccc3ccc(C)nc3c2O)n1` (configuration not stated)?
Bm FixLJ act: -0.95

What do the screens show for `CCc1nccn1CC1(CNC(=O)c2ccc(S(N)(=O)=O)cc2)CC1`?
Bm FixLJ act: -1.3

What do the screens show for `COc1ccc2c(c1)cc1c(=O)n(CC(=O)NC(C)CCc3ccccc3)nc(C)n12` (configuration not stated)?
Bm FixLJ act: 0.3

Results for COc1ccccc1-c1ccnc2[nH]n(-c3ccccc3)c(=O)c12 ?
Bm FixLJ act: 0.83

Results for CCCn1c(=N)c(C(=O)NCc2ccco2)cc2c(=O)n3cc(C)ccc3nc21 ?
Bm FixLJ act: -1.4

Results for CN(C)CCC(c1ccccc1)c1ccccn1 (configuration not stated) ?
Bm FixLJ act: 0.5

How did CC(C)(C)c1ccc(OCC(=O)Nc2c(C(=O)c3ccc(F)cc3)oc3ccccc23)cc1 do in these assays?
Bm FixLJ act: -0.3

What do the screens show for `CCn1c(=O)cc(OCC(=O)N2CCN(c3ccc(OC)cc3)CC2)c2ccccc21`?
Bm FixLJ act: -0.41

How did O=C(NCc1ccc(-c2ncon2)cc1)c1cc(O)ccc1F do in these assays?
Bm FixLJ act: 1.4

How did Cc1ccccc1-c1noc(C(C)NC(=O)N2CCN(C)CC2)n1 (configuration not stated) do in these assays?
Bm FixLJ act: -0.04

How did Cc1ccc(S(=O)(=O)c2nc(-c3ccccc3)oc2N2CCCCCC2)cc1 do in these assays?
Bm FixLJ act: 2.3

What do the screens show for `CCN(C(=O)c1cc2cc(Br)cc(OC)c2oc1=O)c1ccccc1`?
Bm FixLJ act: -1.1

How did COc1ccc(N(CC(=O)NC(C)c2ccccc2)S(=O)(=O)c2c(C)nn(C)c2C)cc1 (configuration not stated) do in these assays?
Bm FixLJ act: -0.05

How did CCCN1CC(NC(=O)C2CCN(C3CCOCC3)CC2)CC1=O (configuration not stated) do in these assays?
Bm FixLJ act: 0.73

What do the screens show for `CC(=O)c1cccc(NC(=O)c2ccc3c(c2)N(Cc2ccc(C)cc2)CCS3)c1`?
Bm FixLJ act: 0.79

How did COc1cccc(-c2cc(C(=O)N3CCN(c4ccc(F)cc4)CC3)no2)c1 do in these assays?
Bm FixLJ act: -0.48

Results for Cn1c(=O)cc(SCC(=O)N2CCN(c3ccc(F)cc3)CC2)c2ccc(Cl)cc21 ?
Bm FixLJ act: -0.68

What do the screens show for `CCOC(=O)c1ccc(N2C(=O)c3[nH]nc(-c4ccc(C)cc4)c3C2c2cccs2)cc1` (configuration not stated)?
Bm FixLJ act: -0.17

Results for Cc1ccccc1C(=O)Nc1cccc(NC(=O)c2ccc(C(C)(C)C)cc2)c1 ?
Bm FixLJ act: 3.2

Results for COc1ccccc1NC(=O)CSc1nnc2c(n1)[nH]c1ccccc12 ?
Bm FixLJ act: -0.39

What do the screens show for `Cc1ccc(NCc2cccn2-c2nnc(N3CCC(C(=O)NCc4ccccc4C)CC3)s2)cc1`?
Bm FixLJ act: 0.89

What do the screens show for `CCOc1ccc(CC(=O)N2CCC3(CC2)c2nc[nH]c2CCN3C)cc1`?
Bm FixLJ act: -0.5

How did COc1ccc(Nc2c(-c3cc(Br)ccc3O)nc3ncccn23)cc1OC do in these assays?
Bm FixLJ act: -0.9

How did CCOc1ccc(N(CC)C(=O)c2cc3c(s2)-c2ccc(Cl)cc2SC3)cc1 do in these assays?
Bm FixLJ act: 2.1

What do the screens show for `COc1cc2c(cc1OC)C(c1ccc(F)cc1)N(c1ccccc1)C(=O)C2` (configuration not stated)?
Bm FixLJ act: -1.2

What do the screens show for `COC(=O)c1cc(-c2ccc(C)cc2)c2c(=O)n(C)c(=O)n(C)c2n1`?
Bm FixLJ act: -2.2

How did CCN(CCCNC(=O)CSc1cc(=O)n(CC)c2ccccc12)c1cccc(C)c1 do in these assays?
Bm FixLJ act: 0.15

What do the screens show for `Cc1c(CC(=O)N2CCCCC2)c(=O)oc2c(C)c3occ(C(C)(C)C)c3cc12`?
Bm FixLJ act: -1.1

Results for Fc1ccc(-c2csc(-c3nc(-c4ccc(Br)s4)cs3)n2)cc1 ?
Bm FixLJ act: -0.93

Results for CCn1cc(C(=O)OCC(=O)Nc2cc(Cl)ccc2OC)c(=O)c2ccc(C)nc21 ?
Bm FixLJ act: -0.33

How did CC(C)c1ccc2oc(-c3ccc(Cl)c(NC(=O)c4cccs4)c3)nc2c1 do in these assays?
Bm FixLJ act: -1.5

How did O=C(CN1CCN(Cc2ccccc2Cl)C1=O)NCc1ccccc1Cl do in these assays?
Bm FixLJ act: -1.6

What do the screens show for `Cc1cc(C)c2c(=O)c3c(oc2c1)C(=O)N(CCCOC(C)C)C3c1ccccc1F` (configuration not stated)?
Bm FixLJ act: -1.6

Results for CCOc1ccc(Nc2c(S(=O)(=O)c3ccc(C)cc3)cnc3ccccc23)cc1 ?
Bm FixLJ act: 0.25

How did CCCCN(CC)C(=O)c1c[nH]c2ccc(S(=O)(=O)Nc3cccc(OC)c3)cc2c1=O do in these assays?
Bm FixLJ act: -0.22

Results for CCCS(=O)(=O)Nc1cc2c(cc1NCc1ccccc1)n(C)c(=O)n2C ?
Bm FixLJ act: 0.18

How did Cc1nn(-c2ccccc2)c2c1cc1c(=O)[nH]c(=O)nc-1n2-c1cccc(Cl)c1 do in these assays?
Bm FixLJ act: -0.84

What do the screens show for `C[C@H](CCC(=O)O)[C@H]1CCC2C3C(=O)CC4CC(=O)CC[C@]4(C)C3CC(=O)[C@@]21C` (some centres not stated)?
Bm FixLJ act: -0.28

How did CCCN1C(=O)C2CCC1CN(C(=O)Nc1cccc(Cl)c1)C2 (configuration not stated) do in these assays?
Bm FixLJ act: 0.65

Results for CCOC(=O)c1c(NC(=O)CSc2nc(-c3ccccc3)cc(C(F)(F)F)n2)sc(C)c1C ?
Bm FixLJ act: -1.4

What do the screens show for `COc1ccc(NC(=O)CSc2nnc(N)s2)cc1`?
Bm FixLJ act: -0.73

What do the screens show for `Cc1cc(CC2CN(C(=O)c3ccc(F)c(O)c3)CC2O)n[nH]1` (configuration not stated)?
Bm FixLJ act: -0.32

Results for COc1cc(OC)cc(-c2cc3nc(C)c(CCC(=O)Nc4ccc(C(C)=O)cc4)c(C)n3n2)c1 ?
Bm FixLJ act: -0.84

What do the screens show for `O=C(CCC1N=C2c3ccccc3N=C(SCC(=O)Nc3ccccc3F)N2C1=O)NCc1ccccc1` (configuration not stated)?
Bm FixLJ act: -1.9

How did CCc1ccc(Cn2ncnc2-c2ccc(CSc3ncn[nH]3)o2)cc1 do in these assays?
Bm FixLJ act: -0.76

How did COc1ccc(Br)cc1S(=O)(=O)Nc1cc(-c2cn3ccccc3n2)ccc1C do in these assays?
Bm FixLJ act: -1.7

How did Nc1nc(CNCc2ccc(OCC(=O)N3CCOCC3)cc2)cs1 do in these assays?
Bm FixLJ act: -3.1

What do the screens show for `CO[C@@]12CCC(Oc3ccccn3)CC1N(Cc1cncn1C)CC2` (some centres not stated)?
Bm FixLJ act: 1.8

Compound activity deposited in PubChem BioAssay by ICCB-Longwood Screening Facility, Harvard Medical School.
